Sa helicase inh: S. aureus DNA helicase inhibition; purified S. aureus helicase, fluorescence unwinding assay; about half of the hits fall short of the stated cut; inhibition, %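 (tested at about 80 µM)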; actives 0.05% (n = 120,000);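 active = both duplicates at 50% or more, or one of them with a favoured structure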;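 note: 0% = mean of negative control wells and 100% = mean of positive control wells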
MgrA DNA FP: alters Staphylococcus aureus MgrA binding to DNA; fluorescence polarization; inhibition, %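 (about 10 µg/mL by stock and volumes)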; actives 0.13% (n = 84,000);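 active = above 50% in either of two replicates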;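 note: 0% = protein plus DNA without compound and 100% = DNA alone without protein; higher means less MgrA bound to DNA so lower polarization; one replicate is shown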
Active calls of the source: *; · = not tested or not shown. Only part of the results is shown; count on the stated rates, not on these rows.

compound	Sa helicase inh	MgrA DNA FP
Cc1cc(SCC(=O)NCc2ccco2)nc2ccccc12	-28.0	·
NC1=C(C(=O)NCc2ccco2)C(=Nc2ccccc2)SC1C(=O)Nc1ccc(Oc2ccccc2)cc1 (stereo unspecified)	-15.0	·
CNC1CCCc2c1n(C)c1ccc(Cl)cc21 (stereo unspecified)	-2.0	-4.0
CN1C(=O)Cc2cc(S(N)(=O)=O)ccc21	8.0	1.4
Cc1cc(C)c2c(N)c(C(=O)c3cccs3)sc2n1	·	3.8
COC(=O)C1=C(Nc2ccccc2NC(=O)c2ccc(Cl)cc2)CSC1	·	-0.9
CC1(C)CC(=O)C=C(N2CCN(S(=O)(=O)/C=C/c3ccccc3)CC2)C1	-2.0	·
O=C(Nc1ncn[nH]1)c1cccs1	·	1.9
Cc1ccc(/C=C/C(=O)N2CCN(S(=O)(=O)/C=C/c3ccccc3)CC2)o1	-8.0	·
CCCc1cc(=O)oc2c(CN3CCN(C)CC3)c(O)ccc12	5.0	·
C=CCn1cnc2ccc(Br)cc2c1=O	-2.0	1.0
CC1Cn2cc(C(=O)N3CCN(c4ccccc4)CC3)c(=O)c3c(Cl)ccc(c32)O1 (stereo unspecified)	28.0	·
CCN(CC(=O)Nc1ccccc1OC)C(=O)c1cccc(CS(C)(=O)=O)c1	3.0	·
CSc1nc2c3ccccc3n(C(C)=O)c2n1Cc1ccccc1	-12.0	·
CS(=O)(=O)/N=C(\NC#N)c1ccccc1	-19.0	·
NCCNC(=O)c1c(O)c2cccc3c2n(c1=O)CCC3	3.0	1.9
CCOC(=O)c1c(Cc2ccccc2Cl)cn(C)c1C	-1.0	·
COc1cc(N=C(C)c2c(C)[nH]n(-c3nc4ccccc4s3)c2=O)cc(OC)c1	10.0	0.6
Cc1[nH]n(C(N)=S)c(=O)c1N=Nc1ccc(Br)cc1	-20.0	·
CCN1C(=O)/C(=C2\SC(=S)N(NC(=O)c3ccccc3Cl)C2=O)c2ccccc21	·	1.6
Cc1cnc(NC(=O)CSc2nc3sc4c(c3c(=O)n2C)CCCC4)s1	6.0	0.1
Cc1ccc(N2CS(=O)/C(=C/Nc3ccc(Cl)cc3)C2=O)cc1 (stereo unspecified)	·	2.1
Nc1nc(COC(=O)C2COc3ccccc3O2)nc(Nc2ccccc2)n1 (stereo unspecified)	2.0	·
Cc1nc(-c2ccc(-c3csc(-c4cnccc4C(F)(F)F)n3)cc2)no1	·	-1.2
O=C1c2ccc(-c3nc4ccc(Cl)cc4c(=O)o3)cc2C(=O)N1CC1CCCO1 (stereo unspecified)	5.0	·
O=C(c1ccccc1F)N1CCOCC1	·	-1.1
CCC(CO)NCc1ccc(-c2ccc(F)c(Cl)c2)o1 (stereo unspecified)	1.0	-2.3
c1cncc(CSc2ccc(-c3cccs3)nn2)c1	21.0	·
C=C[n+]1ccn(-c2nc3ccccc3nc2[N-]S(=O)(=O)c2ccccc2)c1	2.0	·
CCN1C(=O)/C(=C2\SC(=S)N(NC(C)=O)C2=O)c2ccccc21	18.0	-3.7
O=C(O)C1CC2CCCC(C1)C2=O (stereo unspecified)	10.0	·
Cc1cc(C)c2nc(NCCN3CCCC3)cc(C)c2c1	-17.0	·
CN1CCC(NC(=O)Cc2c(F)cccc2Cl)CC1	-15.0	1.8
Cc1ccc(C(N)=S)c(C)c1	-5.0	·
CSc1ccc(/C=C(\C#N)C(=O)NC2CCCCC2C)cc1 (stereo unspecified)	13.0	·
CC1(C)OC2CS(=O)(=O)CC2O1 (stereo unspecified)	38.0	·
Cc1cccn2cc(CCNS(=O)(=O)c3ccc(Oc4ccccc4)cc3)nc12	5.0	2.5
c1ccc(Oc2cccc3cccnc23)nc1	·	-0.6
O=C(Nc1ccccc1)C1CCCN1/C=C/C(=O)C(F)(F)F (stereo unspecified)	7.0	·
Cc1cc(C)n2ncc(/C(N)=N/OC(=O)c3ccccc3F)c2n1	-8.0	·
CCOC(=O)Nc1ccc2c(c1)OCO2	16.0	1.6
CC(C)CN(CC(C)C)c1ncnc2c1cnn2-c1ccccc1	0.0	·
CCC(=O)c1ccc(OCc2cn3cc(Cl)ccc3n2)cc1	6.0	·
CC(C)c1ccc(NC(=O)c2ccc(N(C)C)cc2)cc1	-1.0	-1.8
O/N=C/c1sccc1Oc1ccccc1	·	1.3
N#Cc1cc(-c2ccccc2)oc1N	·	5.1
O=C1Nc2ccc(Br)cc2C1(O)N1CCCCCC1 (stereo unspecified)	·	2.2
CC(C)(C)c1ccccc1NS(C)(=O)=O	-1.0	-0.1
Cc1ccc(C(C(=O)Nc2c(C)n(C)n(-c3ccccc3)c2=O)N(Cc2ccco2)C(=O)Cc2c[nH]c3ccccc23)cc1 (stereo unspecified)	-24.0	·
CN(C)c1ccc(C2N=C(c3ccccc3)NO2)cc1 (stereo unspecified)	-34.0	-5.4
CCOC(=O)Cc1csc(NS(=O)(=O)c2cc(C)c(Cl)cc2Cl)n1	·	-0.2
CCOc1ccccc1Nc1nnc(SCC(=O)NC(C)(C#N)C2CC2)s1 (stereo unspecified)	-7.0	·
O=C(CSc1ncccn1)N/N=C/c1cccc2c1OCCO2	1.0	2.0
COc1ccc([N+](=O)[O-])cc1-c1ccc(/C=c2/sc3nc4ccccc4n3c2=O)o1	·	-1.8
Cc1ccc(S(=O)(=O)NC(=NCc2ccc(Cl)cc2)Nc2nc(C)cc(C)n2)cc1	9.0	1.1
CN(Cc1ccccc1)C(=O)COC(=O)c1cc(Cl)nc(Cl)c1	9.0	·
O=C1N/C(=N/N=C/c2ccco2)SC1Cc1ccc(SC(F)F)cc1 (stereo unspecified)	-6.0	·
CN(Cc1ccccc1)C(=O)c1cc(-c2ccc3c(c2)OCO3)on1	-13.0	·
CC(NC(=O)c1ccco1)C(c1cccs1)N1CCOCC1 (stereo unspecified)	18.0	·
CC1CN(C2CCN(CC3CC4C=CC3C4)CC2)CC(C)O1 (stereo unspecified)	19.0	·

An excerpt from above in order of SMILES length, lowest first:
compound	Sa helicase inh	MgrA DNA FP
Cc1ccc(C(N)=S)c(C)c1	-5.0	·
CN1CCC(NC(=O)Cc2c(F)cccc2Cl)CC1	-15.0	1.8
CCC(=O)c1ccc(OCc2cn3cc(Cl)ccc3n2)cc1	6.0	·
CC(C)CN(CC(C)C)c1ncnc2c1cnn2-c1ccccc1	0.0	·
Cc1cccn2cc(CCNS(=O)(=O)c3ccc(Oc4ccccc4)cc3)nc12	5.0	2.5
COc1ccc([N+](=O)[O-])cc1-c1ccc(/C=c2/sc3nc4ccccc4n3c2=O)o1	·	-1.8

Next section
compound	Sa helicase inh	MgrA DNA FP
CCNCc1cccc(F)c1	-5.0	·
COc1ccc(CNS(=O)(=O)c2ccc3c(c2)N(C)CCO3)cc1	-24.0	·
O=C(O)CCSc1ccccc1C(=O)O	·	-2.8
O=C(COc1cc(Cl)c(Cl)cc1Cl)Nc1cccc(C(F)(F)F)c1	·	1.5
N#CCSc1nc(-c2ccccc2)c2cc(Cl)ccc2n1	4.0	-1.2
CCN(C(=S)NC)c1cccc2ccccc12	17.0	·
CC(=O)Nc1sc2c(c1SC#N)CCCC2	29.0	0.5
O=C(CCc1nnc2ccc(N3CCCC3)nn12)NCc1ccccn1	-10.0	·
CC1=CCC(COC(=O)CN2CCCCC2)CC1 (stereo unspecified)	13.0	0.4
N=CC1=C(O)c2ccccc2C1=O	38.0	·
COc1ccc(-n2c(-c3ccc(Br)cc3)nc3cc4c(cc32)OCO4)cc1	4.0	17.1
O=C1c2cnccc2CN1Cc1ccccc1	14.0	-6.5
O=C(NCCC1=CCCCC1)c1ccc2c(c1)[nH]c(=O)n2C1CCCC1	-16.0	1.9
Cc1cc(C)nc(SC(C)CN(C)C)n1 (stereo unspecified)	-12.0	0.4
CCOC(=O)c1cnc2ccccc2c1Cl	·	-5.9
O=C(Cn1cnc2nc3c(cc2c1=O)CCCC3)NCCC1=CCCCC1	-18.0	·
CCCCCCCCCCCC(=O)N1CC(=O)NC(=O)C1	·	-2.1
CCSc1ccccc1C(=O)Nc1nncs1	12.0	2.1
O=C(COc1ccc(Cl)cc1)Nc1c(-c2ccc(F)cc2)nc2ccccn12	10.0	1.7
COCCn1c(=O)c2sc3ccccc3c2n(CCN2CCOCC2)c1=O	16.0	·
CC1CCCCN1S(=O)(=O)c1cc(Cl)ccc1Cl (stereo unspecified)	-25.0	·
C=CCSc1nnc(NC(=O)Cc2coc3ccc(OC)cc23)s1	6.0	·
CC(=O)N(C(C)=O)c1nccc(-c2c(-c3ccccc3)noc2C)n1	·	8.6
COc1cc(C=Nc2ccc(N=Cc3ccc(OC(C)=O)c(OC)c3)cc2)ccc1OC(C)=O	10.0	-0.2
O=C(NCCCc1ccccc1)NC1CC(=O)N(c2ccc(F)cc2)C1 (stereo unspecified)	-1.0	·
COc1ccc(C(=O)CCC(=O)O)cc1	·	0.8
C=CCC1c2cccc(C(=O)O)c2C(=O)N1c1ccc(F)cc1 (stereo unspecified)	10.0	-0.8
CCC(C)N(C(=O)CSc1nc(-c2ccccc2)cs1)C1CCS(=O)(=O)C1 (stereo unspecified)	-20.0	·
CC(NC(=O)CN1CCN(C(=O)C2CCCO2)CC1)c1ccccc1 (stereo unspecified)	8.0	·
Cc1cccc(N2CCN(c3nc4ccccc4c(=O)n3Cc3ccccc3)CC2C)c1 (stereo unspecified)	11.0	-0.8
COC(=O)c1ccc(COn2nnc3ccc(S(=O)(=O)N4CCOCC4)cc32)o1	5.0	·
CCc1ccc(C2CC(=O)NC(NC(=O)Cc3ccc(OC)c(OC)c3)=N2)cc1 (stereo unspecified)	-16.0	·
COc1cc(C(F)(F)F)c(C(=O)NCc2cccc(Cl)c2Cl)cn1	·	-2.2
N#CC(C#N)=C/C=C/c1cc(C#N)c(N)o1	-259.0	·
CC1(CN)CCCC1	11.0	0.6
Cc1cc(Br)ccc1OCCCN1CCC(C)CC1	8.0	-4.3
CNS(=O)(=O)c1ccc2ccccc2c1	-7.0	0.7
COc1cccc(-c2cc(C(=O)N3CCN(C(c4ccccc4)c4ccccc4)CC3)[nH]n2)c1	8.0	·
CSc1cccc(N2CC(C(=O)N3CCN(S(=O)(=O)c4ccccc4Cl)CC3)CC2=O)c1 (stereo unspecified)	-13.0	·
CCn1c2ccccc2c2cc(CNC3CC3)ccc21	-7.0	-0.2
COc1ccc(-c2nc3ccccc3n2CCc2ccccc2)cc1OC	11.0	-1.1
Cc1ccc(N(C(=O)c2ccncc2)C2C=CS(=O)(=O)C2)cc1 (stereo unspecified)	28.0	·
COc1ccc(C2=NN(CC(=O)N3CCN(c4cccc(Cl)c4)CC3)C(=O)CC2)cc1	9.0	·
CC(=O)N1CCN(C(=O)CN2C(=O)S/C(=C\c3ccc(Cl)cc3)C2=O)CC1	-12.0	·
CC12CCC(=O)C=C1NC(=O)CC2 (stereo unspecified)	·	3.5
CSc1scc(-c2cccc(Cl)c2)c1C#N	·	-2.2
CCc1ccc(N=C(N)N=C(N)N)cc1	·	2.8
CCCCC(=O)c1ccc(C)[nH]c1=S	-2.0	-1.9
O=C(O)CCSc1ccc(F)c(F)c1	3.0	·
Cc1c(NC(=O)CSc2ccccn2)c(=O)n(-c2ccccc2)n1C	11.0	-0.9
O=C1c2ccccc2NC(c2ccc3cccnc3c2)N1c1cccc(C(F)(F)F)c1 (stereo unspecified)	1.0	-3.4
O=c1onc(-c2cccs2)n1Cc1ccc(F)cc1Cl	9.0	-0.6
CCNC(=S)NNc1ccc(C)cc1C	-24.0	·
COc1cccc(Cn2c(=O)c3ccccc3n3nc(C)cc23)c1	·	-1.8
Cc1ccsc1C(=O)OCC(=O)N(C)C1CCCCC1	3.0	-1.0
COc1ccc(C2C(=O)N(CCc3ccccc3)CC(=O)N2C2CCCCC2)cc1 (stereo unspecified)	-5.0	·
O=C1Nc2cc(C(=O)NCc3ccccc3)ccc2S/C1=C\c1ccccc1	1.0	-1.4
COc1ccc(N2C(=O)[n+]3ccccc3C2C(=O)Nc2c(C)cccc2C)cc1 (stereo unspecified)	17.0	-1.8
CCC(C(=O)NCc1ccccc1)n1c2ccccc2c2cn[nH]c(=O)c21 (stereo unspecified)	1.0	2.5
CC1=NN(c2ccc(C(=O)O)cc2)C(=O)/C1=C\c1ccco1	14.0	·

Other records follow.
compound	Sa helicase inh	MgrA DNA FP
O=C(CCC1CC(=O)OC1c1ccccc1)Nc1nccs1 (stereo unspecified)	17.0	-0.6
O=C(CSc1ncn[nH]1)NC12CC3CC(CC(C3)C1)C2	8.0	-0.5
O=C(Cn1c2ccccc2c2cn[nH]c(=O)c21)NCc1ccccc1	12.0	·
COC(=O)c1cnn(C(=O)c2ccc(OC)cc2)c1N	7.0	·
C=CCn1c(SCc2ccc(C(=O)OC)cc2)nc2ccccc2c1=O	-12.0	·
COc1cccc(NC(=O)c2ccnc(N3CCC(C(=O)N4CCOCC4)CC3)c2)c1	14.0	·
O=C(COc1ccccc1)Nc1nnc(SCc2cccc(F)c2)s1	-17.0	·
CC(C)c1ccc(NC(=O)Nc2cccs2)cc1	-25.0	·
CN1c2ccsc2C(=O)CS1(=O)=O	14.0	·
Cn1c(-c2cc3ccc(O)c(CN4CCCC4)c3oc2=O)nc2ccccc21	0.0	9.4
Cc1ccc(-c2csc(NC3OC(=O)c4ccccc43)n2)cc1C (stereo unspecified)	9.0	0.1
Cc1ccccc1NC(=O)NCC1CCN(C(=O)OC(C)(C)C)CC1	-11.0	·

Screens deposited in PubChem BioAssay by ICCB-Longwood Screening Facility, Harvard Medical School.
